Bioassay records: PubChem, several laboratories
Bfl-1 A1 inh: inhibitors of the anti-apoptotic protein A1, read as caspase activation | MEF A1-2A-BIM cells, Caspase-Glo 3/7 luminescence, 3 h; percent of clofoctol response, vehicle zero | caspase activation, % (no concentration beside the values) | 330,000 compounds, 0.066% hits;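 active means over half of replicate activation scores above 10%, or exactly half above 10 with the replicate mean above 10; inconclusive means replicate mean below 10 yet half the replicates above 10; inactive means over half of replicates below 10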;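 further: wells of about 30 µL received 50 nL stock; many hits fall short of the cut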
Vif TR-FRET: HIV-1 Vif–A3G interaction blockers – biochemical, TR-FRET, GST-Vif 1-94, biotin-A3G peptide, dose response retest, primary screen (AID 1117319); TR-FRET GST-Vif / biotin-A3G peptide binding; higher % means a stronger effect; test concentration not given here; strong numbers were not always called active; inhibition, %, or IC50 in µM where a hit was titrated; 260,000 compounds, 0.57% hits;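 active means above the screen mean plus three standard deviations and confirmed in dose response; inconclusive means results disagree or hit not tested in dose response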;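 further: Vif residues 1-94 fused to GST binding biotinylated APOBEC3G peptide 110-148; 0% = full assay without inhibitor and 100% = GST in place of GST-Vif; retest series ran down from 100 µM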
B2AR ag: agonists of human beta-2 adrenergic receptor inducing internalization. Am2.2-beta2AR cells, FAP receptor internalization, flow cytometry; reference of the scale not given here. response, % (no concentration beside the values). 340,000 compounds, 0.43% hits. AID 504454;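 active means response above a set limit, near 3 SD of response in nonfluorescent compounds, cut at about 42% in these data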;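 further: stock transfer was 100 nL into about 11 µL; a reference agonist was the positive control; negative values mostly stem from fluorescent compounds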
Target sequence (P07550 whole entry, looked up): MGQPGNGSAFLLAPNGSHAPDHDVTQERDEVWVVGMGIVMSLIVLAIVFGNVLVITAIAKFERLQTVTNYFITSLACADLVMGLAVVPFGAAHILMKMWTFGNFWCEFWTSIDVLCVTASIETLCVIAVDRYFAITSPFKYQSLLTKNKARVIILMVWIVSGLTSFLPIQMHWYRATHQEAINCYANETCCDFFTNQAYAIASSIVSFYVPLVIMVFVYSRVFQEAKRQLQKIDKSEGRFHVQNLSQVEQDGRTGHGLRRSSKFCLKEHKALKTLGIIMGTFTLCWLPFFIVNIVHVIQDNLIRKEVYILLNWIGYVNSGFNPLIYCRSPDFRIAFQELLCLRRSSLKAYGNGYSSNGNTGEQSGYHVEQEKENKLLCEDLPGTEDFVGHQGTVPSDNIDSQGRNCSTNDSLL
LANA-H2B inh: blocks KSHV LANA binding to histone H2A/H2B | Q9QR71 | cell-free LANA-H2A/H2B peptide, fluorescence polarization | inhibition, % (no concentration beside the values) | 320,000 compounds, 0.6% hits | AID 2629; in the data active means inhibition mostly above about 10%, no sharp cut-off; inactive means mostly below about 6.7%;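 further: stock transfer was 7.5 nL into about 10 µL; 0% = median of vehicle wells and 100% = median of positive control wells; one replicate is shown; the record names a cut of 25% in any replicate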
HNF4A DNA FP: change in binding of human HNF4 alpha to DNA. P41235. HNF4a-FITC DNA binding, fluorescence polarization, 1 h. activity change, % at 10 µM. 360,000 compounds, 0.3% hits; in the data active means activity change above about 30%, passing the limit was not always enough;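 further: controls were the assay level and a saturating level of protein; the project sought stronger binding though the title names inhibitors; some compounds called inactive have numbers as strong as hits; positive values seem to mean higher polarization but the record does not say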
Target sequence (P41235 whole entry, looked up): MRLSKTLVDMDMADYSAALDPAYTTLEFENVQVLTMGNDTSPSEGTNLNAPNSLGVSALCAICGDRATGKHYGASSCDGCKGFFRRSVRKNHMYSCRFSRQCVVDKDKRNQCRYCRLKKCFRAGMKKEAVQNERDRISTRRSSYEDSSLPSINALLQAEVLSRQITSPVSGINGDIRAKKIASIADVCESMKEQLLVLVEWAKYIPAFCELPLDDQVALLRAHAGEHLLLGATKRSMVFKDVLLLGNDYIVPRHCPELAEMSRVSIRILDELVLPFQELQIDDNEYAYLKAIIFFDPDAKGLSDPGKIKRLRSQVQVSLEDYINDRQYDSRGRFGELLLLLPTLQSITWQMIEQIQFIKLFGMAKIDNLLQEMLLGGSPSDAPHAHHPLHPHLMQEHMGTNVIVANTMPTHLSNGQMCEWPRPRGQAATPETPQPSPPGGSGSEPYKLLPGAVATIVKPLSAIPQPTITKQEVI
Ecoli growth: inhibitors of Escherichia coli growth; OD600 absorbance (no concentration beside the values); OD600, 23 h; hits give low values; 330,000 compounds, 0.21% hits;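 active means OD600 absorbance below the run mean of sample wells minus 3.6 SD, in any replicate, cut at about 0.56 in these data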;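 further: stock transfer was 300 nL into about 60 µL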
UCH37 DUB inh: blocks the human deubiquitinase UCH37. Q9Y5K5. purified proteasome/UCH37, Ub-AMC cleavage fluorescence. inhibition, % (no concentration beside the values). 330,000 compounds, 0.33% hits. AID 588478;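 active means mean of two replicates above 20%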;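 further: 0% = compound-free wells with enzyme and 100% = wells lacking proteasome; stock transfer was 100 nL into about 20 µL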
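Material: human UCH37 enzyme supplied as purified proteasome complex / Amount: 0.15 nM proteasome as dispensed / Buffer or medium: pH 7.4 Tris-HCl (50 mM) with ovalbumin, ATP-MgCl2, DTT / Times: preincubation 30 min, reaction 25 min, room temperature / Technique: AMC fluorescence from Ub-AMC cleavage, excitation 355 nm, emission 460 nm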
Starred values were filed as active, the others as inactive; ? = inconclusive; · = no result given.

SMILES	Bfl-1 A1 inh	Vif TR-FRET	B2AR ag	LANA-H2B inh	HNF4A DNA FP	Ecoli growth	UCH37 DUB inh
CON(c1nc(Cl)nc(N(C)C)n1)S(=O)(=O)c1ccccc1Cl	0.1	4%	-4	3.2	-0.4	0.73	2.1
c1coc(-c2nnc3sc(C4CCCCC4)nn23)c1	0.4	7%	-1	3.7	-0.8	0.69	-0.4
Cc1ccc(N(C)S(=O)(=O)c2ccc(-c3ccc(=O)[nH]n3)s2)cc1C	0.9	·	0	3.3	0.0	0.74	1.7
CC[n+]1ccc2cc(OC)c(OC)cc2c1Cc1ccc(OC)c(OC)c1	0.2	·	2	-3.7	-1.3	·	·
Cc1nn(-c2ccccc2)c(C)c1/C=C/C(=O)OC(C)C(N)=O (stereo not given)	0.3	-4%	-4	-15	-1.9	·	3.7
Cc1ccc(/C=C2\SC(=S)N(c3cccnc3)C2=O)cc1	1.6	21%	2	1.0	3.9	0.72	-0.2
Cc1cccc(C)c1NC(=O)C1CCCN1C(=O)OC(C)(C)C (stereo not given)	?	7%	5	-1.2	-0.1	0.68	4.3
CC(NC(=O)C12CC3CC(C)(CC(C)(C3)C1)C2)c1ccncc1 (stereo not given)	-0.1	0%	-4	-2.4	2.4	0.63	3.3
CCCCN1CNC(=S)N(CCc2ccc(OCC)c(OCC)c2)C1	-0.1	3%	-1	-5.3	3.3	0.68	5.1
Cn1cccc1C(=O)OCC(=O)Nc1ccc2c(c1)OCO2	0.2	-1%	-2	-3.1	-1.8	0.71	2.4
COc1ccc(OCc2cnc(Cl)s2)cc1	-1.3	-3%	-6	1.2	-0.7	0.71	2.3
COc1cc(/C=C(/C#N)C(=O)Nc2ccc(C)cc2)ccc1Oc1nc(Cl)ncc1F	0.1	11%	15	0.1	1.5	·	0.8
Cc1ccccc1NC(=O)CCC(=O)OCC(=O)c1cccc([N+](=O)[O-])c1	-0.1	-6%	4	3.2	3.6	0.73	2.6
CC(=O)Nc1ccc(NC(=O)CS(=O)(=O)c2cn(CC(=O)N3CCCC3)c3ccccc23)cc1	0.8	·	-11	2.7	-0.5	0.72	1.8
CCC(=O)Nc1ccc(-c2nc(-c3ccccc3)n(CC(=O)N3CCCCC3)n2)cc1	-0.5	7%	-1	-0.1	-0.9	0.76	-0.6
Cc1ccn2c(-c3csc(NCc4ccccc4)n3)c(C)nc2c1	-0.1	-3%	22	0.4	-1.0	0.68	0.8
O=C(NCc1ccccn1)Nc1cccc(F)c1	-0.5	-7%	4	1.2	0.2	0.69	6.1
CNC(=S)N(CCc1c(C)[nH]c2ccccc12)Cc1cccnc1	-0.1	0%	-9	3.7	3.9	0.69	-0.9
CC1CCCCC12NC(=O)N(CC(=O)N1CCN(C(=O)c3cccs3)CC1)C2=O (stereo not given)	·	-10%	-1	·	-3.1	0.67	1.7
CC(C)(C)N(Cc1ccccc1)C(=O)COC(=O)c1ccc(Br)o1	0.6	·	2	-2.8	1.3	0.65	-2.2
Cc1csc(NC(=O)c2cc(=O)[nH]c3ccc(S(=O)(=O)N4CCOCC4)cc23)n1	0.3	-5%	-5	-4.4	-1.9	0.71	-198
O=C(COc1ccc2c3c(c(=O)oc2c1)CCC3)N1CCCCC1	-0.3	3%	-8	-4.1	5.7	0.67	-63
Nn1c(COc2cccc(Br)c2)nnc1SCC(=O)N1CCc2ccccc2C1	-0.4	4%	-10	0.4	4.2	0.7	5.0
Cc1noc(C)c1S(=O)(=O)Nc1ccc2c(c1)C(=O)N([C@H](C)CO)C[C@@H](C)[C@@H](CN(C)Cc1ccc3c(c1)OCO3)O2	0.8	-5%	4	-33	1.4	0.72	1.4
CCn1c(SCc2ccc(C#N)cc2)nnc1-c1ccc(S(=O)(=O)N2CCCCC2)cc1	-0.2	-10%	7	0.1	2.0	0.71	0.5
Cc1ccc(C)c(NS(=O)(=O)c2ccc3[nH]c(=O)[nH]c3c2)c1	0.0	13%	-1	-0.9	0.1	0.69	4.4
CC(C)CN(C(=O)COC(=O)C12CC3CC(CC(C3)C1)C2)c1c(N)n(Cc2ccccc2)c(=O)[nH]c1=O	-0.6	1%	8	-12	3.4	0.67	1.1
O=C(Cn1cnc2ccccc21)N/N=C/c1ccccn1	0.4	3%	2	-0.7	-1.2	·	·
CCOc1ccc(-c2nnn(CC(=O)Nc3ccccc3OC)n2)cc1OCC	-0.1	16%	0	-3.5	-2.2	0.72	1.8
CCOC(=O)/C(C#N)=C1/SC(CC)C(=O)N1c1ccc(Br)cc1 (stereo not given)	-4.7	-3%	3	8.6	-3.9	0.68	5.7
O=C(CSc1nnnn1-c1ccc(C(=O)O)cc1)NC1CCCCC1	0.5	·	-4	-5.1	1.1	0.66	5.4
Cc1cc(C)c(C)c(S(=O)(=O)N(C)C2CCN(C)CC2)c1C	-0.7	·	6	-1.9	3.0	0.7	4.1
Cc1cc(C)cc(NC(=O)CSc2nc3[nH]c(=O)cc(O)c3s2)c1	-0.2	·	-3	3.5	1.0	0.7	5.4
CC12CCC(C/C1=N/NC(=O)Nc1ccccc1)C2(C)C (stereo not given)	-0.8	-6%	1	-4.5	2.0	·	·
O=C(NC1CCCCC1)C(c1ccc(O)c(O)c1)N(C(=O)Cn1nnc2ccccc21)c1cccc(O)c1 (stereo not given)	-2.3	26%	-6	2.8	-1.4	0.67	3.3
COc1ccccc1-c1c(C)nn2c(N3CCCCCC3)cc(C)nc12	·	2%	7	·	0.7	0.69	-14
Cc1ccccc1NC(=O)CCCN1C(=O)C2CC=CCC2C1=O (stereo not given)	0.0	·	-1	3.4	2.7	0.66	1.0
O=S(=O)(c1ccc(-n2cnnn2)cc1)N(C1CCCCC1)C1CCCCC1	1.1	1%	19	3.6	0.1	0.66	0.2
O=C(CCNC(=O)c1ccc([N+](=O)[O-])cc1)NCCc1ccc(Cl)cc1	0.7	·	1	11	-0.9	0.68	2.5
COc1ccc(OC)c(NC(=O)CN2C(=O)COc3ccc(C)cc32)c1	1.4	-6%	-1	-4.6	-3.4	0.65	2.5
CCOC(=O)C1CCCN(C(=O)c2cnn3c(C(F)(F)F)cc(-c4ccccc4)nc23)C1 (stereo not given)	0.3	14%	-7	-1.0	4.5	0.67	-5.5
Cc1ccnc(NC(=O)CNC(=O)c2ccc3c(c2)OCO3)c1	-0.1	·	7	-0.7	2.2	0.67	-0.7
O=C(OCC(=O)N1CCCCC1)c1cc(NS(=O)(=O)c2ccc(Cl)c([N+](=O)[O-])c2)ccc1O	-0.2	·	-4	-2.1	2.6	0.62	0.5
COc1ccc(-c2nc(N3CCOCC3)nc3n[nH]c(N)c23)cc1	0.2	0%	1	-0.3	-0.4	0.68	7.0
Cc1cc(C)c2oc(-c3ccc(Cl)c(NC(=O)c4ccc(C#N)cc4F)c3)nc2c1	0.2	4%	3	0.2	8.3	0.75	-36
Cn1c(C(=O)N2CCN(c3cccc(C(F)(F)F)c3)CC2)cc2sccc21	-0.1	20%	0	-0.9	-1.1	0.69	-0.9
Nc1ccc(C#Cc2ccc3oc4ccccc4c(=O)c3c2)cc1	0.8	·	3	-3.5	-4.6	0.67	-3.0
COCCN(CCOC)c1ncc(Cl)c(C(=O)c2c(C)cc3ccccn23)n1	0.5	2%	3	-7.9	0.8	0.7	3.1
Nc1nc(CN2CCc3ccccc3C2)nc(Nc2ccccc2)n1	0.0	-1%	11	2.4	5.2	0.68	4.4
CCC(=O)n1nc(-c2ccco2)nc1SCc1ccccc1	-0.2	8%	-2	0.1	1.8	0.75	3.5
O=C(CCl)Nc1ccccc1C(=O)c1ccccc1	-0.6	4%	-2	2.3	0.8	0.66	1.6
O=C1OC(Nc2cc(Br)cc3cccnc23)c2ccccc21 (stereo not given)	0.6	?	2	-0.3	-0.7	0.66	3.9
CCN(C(=O)COC(=O)c1cc(OC)c(OC)cc1[N+](=O)[O-])C1CCS(=O)(=O)C1 (stereo not given)	1.0	8%	-3	-0.8	-0.3	0.67	7.7
COC(=O)c1cc2nc(-c3ccc(OC)c(OC)c3)cc(C(F)(F)F)n2n1	1.1	10%	-2	-1.5	0.9	0.74	-39
COC(=O)[C@@]1(C)[C@H]2C(=O)N(Cc3ccccc3)C(=O)[C@H]2[C@H]2CN=C(SCc3ccc(C)cc3)N21	·	4%	-2	·	5.8	0.69	1.7
N/C(=N\C(=S)Nc1ccccc1)c1ccccc1	-2.6	-5%	-11	7.1	4.1	0.65	7.6
O=C(Nc1cccc(S(=O)(=O)NC2=NCCC2)c1)c1ccc(F)cc1F	-0.4	·	5	-1.5	-0.6	0.67	0.5
CCN1CCN(c2ccc(S(=O)(=O)N3CCCCC3)cc2NC(=O)/C=C/c2ccc(OC(F)F)cc2)CC1	0.0	-1%	27	-3.8	-1.7	0.6	1.9
O=C(CSc1nnc(CNC(=O)c2c(F)cccc2F)o1)Nc1ccc2c(c1)OCCO2	-0.4	·	4	6.8	-2.5	0.65	-0.1
Cc1cccc(NC(=O)Cn2cnc3ccc(S(=O)(=O)N4CCC(C)CC4)cc3c2=O)n1	0.3	0%	5	-5.7	13	0.69	-0.1

Later entries:
SMILES	Bfl-1 A1 inh	Vif TR-FRET	B2AR ag	LANA-H2B inh	HNF4A DNA FP	Ecoli growth	UCH37 DUB inh
Fc1cccc(C2CC(c3cccc(Br)c3)Nc3nnnn32)c1 (stereo not given)	1.0	-6%	-3	0.4	-2.9	0.69	0.0
CNC(=S)N(Cc1ccccc1)Cc1cccnc1	-0.1	-11%	-4	15	6.3	0.69	1.3
Cc1nc(CS(=O)(=O)c2ccccn2)sc1C(=O)NNC(=O)c1ccccc1	0.0	1%	-1	-9.7	6.5	0.71	1.1
C/C(CCC(C)C)=N\NS(=O)(=O)c1ccc(C)c([N+](=O)[O-])c1	0.7	1%	0	6.4	-4.2	·	·
O=C1c2ccccc2-c2n[nH]c(=O)c3ccc(N4CCCCC4)c1c23	-0.3	6%	11	-3.1	1.4	·	·
CCN(CC)S(=O)(=O)c1ccc(N2CCCCC2)c(NC(=O)/C(C#N)=C/c2ccc(OC)cc2)c1	0.9	8%	-1	0.7	4.5	0.75	3.9
CCOC(=O)c1ccccc1NC(=O)COC(=O)CCCOc1ccccc1	-0.5	-5%	2	-2.4	3.2	0.7	1.3
COc1ccc(C(=O)N2CCCC(C(=O)O)C2)c2ccccc12 (stereo not given)	0.5	·	4	-2.8	1.0	0.7	4.3
O=C(CN1CCN(c2ccccc2F)CC1)c1c[nH]c2ccccc12	-0.2	-11%	-3	1.3	2.3	0.71	2.2

5 compounds picked at random from those above:
SMILES	Bfl-1 A1 inh	Vif TR-FRET	B2AR ag	LANA-H2B inh	HNF4A DNA FP	Ecoli growth	UCH37 DUB inh
CNC(=S)N(Cc1ccccc1)Cc1cccnc1	-0.1	-11%	-4	15	6.3	0.69	1.3
CCOC(=O)c1ccccc1NC(=O)COC(=O)CCCOc1ccccc1	-0.5	-5%	2	-2.4	3.2	0.7	1.3
Cc1nc(CS(=O)(=O)c2ccccn2)sc1C(=O)NNC(=O)c1ccccc1	0.0	1%	-1	-9.7	6.5	0.71	1.1
CCN(CC)S(=O)(=O)c1ccc(N2CCCCC2)c(NC(=O)/C(C#N)=C/c2ccc(OC)cc2)c1	0.9	8%	-1	0.7	4.5	0.75	3.9
C/C(CCC(C)C)=N\NS(=O)(=O)c1ccc(C)c([N+](=O)[O-])c1	0.7	1%	0	6.4	-4.2	·	·
